# A488 fluor: A488 region autofluorescence; compound autofluorescence, A488 spectral region, dye equivalency; hits give high values; max dye equivalency, M; hit rate 0.1% among 59,000; active = above 10 nM dye equivalent; inconclusive = 1 to 10 nM; inactive = 1 nM or less; about half of its hits are not listed in these tables;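 note: highest value over a series up to 38 µM; compound alone in buffer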
#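 Read-out: relative fluorescence at 480/540 nm, expressed as Alexa 488 dye-equivalent concentration from a six-point A488 standard included per plate. Conditions: 100 mM Tris, pH 8.0; 15 min incubation, room temperature.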
# A647 fluor: compound fluoresces in the A647 spectral region | 59,000 tested, under 10 active | AID 592 | Compound fluorescence, A647 channel (570/671 nm), Tris buffer | max dye-equivalent concentration, M; active means above 1 µM dye equivalent; inconclusive means 0.1 to 1 µM; inactive means 0.1 µM or less;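 note: values scaled relative to a standard on each plate; highest value over a series up to 38 µM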
#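 Compounds pinned into 100 mM Tris pH 8.0, 15 min at room temperature, then read with 570 nm excitation/671 nm emission filters. Fluorescence normalized to an on-plate six-point Alexa 647 standard curve, giving dye-equivalent concentration per compound concentration.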
# AID923: qHTS Assay for Allosteric/Competitive Inhibitors of Caspase-1: Spectroscopic Profiling in AFC Spectral Region; compound fluorescence, AFC spectral region (405/520 nm); almost no hit is shown here; Potency, µM (top dose mostly 57.5 µM), for the others: at the highest dose fluorescence increase, hits mostly activators; hit rate 1.1% among 75,000; active = well fitted activation curve with a large enough effect; inconclusive = small, poorly fitted or top-dose-only effect;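 note: potency is the fitted concentration of half-maximal effect; 0% is about no effect; scaled to a free AFC standard on each plate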
#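 Compound autofluorescence profiled at 405 nm ex/520 nm em during kinetic caspase 1 run (50 nM enzyme, 5 uM Ac-WEHD-AFC, HEPES pH 7.5, 10 mM DTT). Titration up to 57 uM; baseline from regression intercept, normalized to AFC standard curve.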
# TSHR ag: TSH receptor (human) agonism; P16473; HEK293-CNG-TSHR cells (CNG channel as cAMP sensor), membrane potential dye, cAMP; Potency, µM (series often up to 57.1 µM), inactives show at the top dose activation, actives largely listed as activators; hit rate 0.48% among 73,000; AID 926; active = well fitted activation curve of enough size with the parental cells flat; inconclusive = any curve in the parental cells; inactive = parental cells flat and receptor cells flat or falling; note: potency is the fitted concentration of half-maximal effect; % of control where 0% means no effect; weak receptor curves with flat parental cells got no call and are not listed
# Target sequence (P16473 whole entry, looked up): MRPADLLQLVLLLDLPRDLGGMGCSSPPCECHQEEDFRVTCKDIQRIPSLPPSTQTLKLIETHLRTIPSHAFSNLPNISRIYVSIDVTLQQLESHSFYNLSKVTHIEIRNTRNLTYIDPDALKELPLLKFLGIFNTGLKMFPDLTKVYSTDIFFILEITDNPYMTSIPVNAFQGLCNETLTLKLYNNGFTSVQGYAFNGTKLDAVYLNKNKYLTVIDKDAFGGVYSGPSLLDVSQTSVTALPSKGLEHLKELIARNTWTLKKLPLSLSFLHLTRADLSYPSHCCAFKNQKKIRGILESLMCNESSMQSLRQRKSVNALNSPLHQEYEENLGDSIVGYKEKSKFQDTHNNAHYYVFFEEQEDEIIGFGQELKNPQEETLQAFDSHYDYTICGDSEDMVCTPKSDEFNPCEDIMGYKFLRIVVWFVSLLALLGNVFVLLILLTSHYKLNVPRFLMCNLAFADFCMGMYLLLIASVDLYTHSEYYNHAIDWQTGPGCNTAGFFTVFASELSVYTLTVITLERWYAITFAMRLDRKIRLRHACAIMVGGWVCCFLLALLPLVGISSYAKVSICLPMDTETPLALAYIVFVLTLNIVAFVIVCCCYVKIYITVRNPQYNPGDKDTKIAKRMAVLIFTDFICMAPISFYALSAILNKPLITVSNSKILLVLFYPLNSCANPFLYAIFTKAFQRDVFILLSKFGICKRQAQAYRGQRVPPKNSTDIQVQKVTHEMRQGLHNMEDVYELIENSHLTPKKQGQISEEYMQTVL
#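 HEK 293 cells stably expressing TSHR and a modified CNG channel, with CNG-only parental cells as counterscreen, were preloaded 60 min at room temperature with membrane potential dye containing 100 uM RO 20-1724. Compound exposure was 30 min, and depolarization was read as fluorescence at 590 nm.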
# Resorufin autofl: compound fluoresces in the resorufin spectral region; max dye-equivalent concentration, M; hit rate 0.04% among 59,000; Compound fluorescence, resorufin region 547/598 nm, buffer; hits give high values; active = above 10 nM dye equivalent; inconclusive = 1 to 10 nM; inactive = 1 nM or less; a few of its hits are not listed in these tables; note: highest value over a series up to 38 µM
#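 Compounds in 100 mM Tris, pH 8.0, incubated 15 min at room temperature, then fluorescence read at 547 nm excitation/598 nm emission. Signal converted to dye-equivalent concentration via an on-plate six-point resorufin standard curve, per compound concentration.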
# * = called active by the depositor; i = inactive; ? = inconclusive; . = no result given; [ ] = remark or other dose. Not all compounds are listed (hit frequency here may not be typical).
SMILES,A488 fluor,A647 fluor,AID923,TSHR ag,Resorufin autofl
O=C(Nc1ccccc1OC(F)F)c1ccc(Br)o1,i,1.2e-08,3.5%,6%,i
N#CC1=C(N)SC(N)=C(C#N)C1c1ccnc2ccccc12,i,4.4e-08,17%,?,i
Cc1cc(OCC(=O)Nn2cnnc2)ccc1Br,i,1e-09,.,.,i
Cc1cc(C(=O)CSc2nnc(-c3ccco3)o2)c(C)n1CC1COc2ccccc2O1 (stereo not drawn),i,1.3e-08,1.5%,24%,i
COC(=O)c1ccccc1NC(=O)c1cnc2sccn2c1=O,i,1.8e-08,-2.4%,5%,i
O=S(=O)(c1ccc2ccccc2c1)N1CCN(S(=O)(=O)N2CCOCC2)CC1,i,1e-08,-0.7%,.,i
CCOc1ccc(C(=O)N(Cc2ccc(N(C)C)cc2)C2CCS(=O)(=O)C2)cc1 (stereo not drawn),i,1e-09,-0.8%,7%,i
Cc1cc(C)c(S(N)(=O)=O)c(C)c1-n1cnnn1,i,4.2e-08,-1.4%,3%,i
CCN(CC)CCCN1C(=O)C(=O)/C(=C(/O)c2ccc3c(c2)CC(C)O3)C1c1ccncc1 (stereo not drawn),i,1.2e-09,.,.,i
COc1ccc(-c2nnc3n2N=C(c2cccc(Br)c2)CS3)cc1OC,i,2.7e-08,0.4%,24%,i
CC(C)Cn1c(N)c(C(=O)COC(=O)C2CCCCC2)c(=O)n(C)c1=O,i,2.3e-08,1.0%,18%,i
Cc1nn(C(C)(C)C)c(OC(=O)C2CCCC2)c1S(=O)(=O)c1ccccc1,i,1.9e-08,1.3%,?,i
CN(Cc1nc(-c2cccnc2)no1)S(=O)(=O)c1ccc2ccccc2c1,i,1e-09,1.9%,21%,i
O=c1c(-c2ccccc2)nc2cncnc2n1Cc1ccc(F)cc1,i,2.1e-08,5.9%,-29%,i
O=C(NCc1ccc(F)cc1)c1cc2ccccn2n1,.,.,1.5%,5%,.
CC1=C(c2ccccc2)[N+](=O)C2(CCCC2)N1[O-],.,.,4.4%,10%,.
CCCN1CCC(NC(=O)Nc2ccc(OC)c(OC)c2)CC1,i,5e-09,0.9%,-2%,i
CCc1ccc(-c2nc(CN3CCC(C(=O)NCCc4ccc(OC)c(OC)c4)CC3)c(C)o2)cc1,i,3.3e-08,0.8%,?,i
Cn1c(Cl)nc2c1c(=O)n(Cc1cccc(Br)c1)c(=O)n2C,i,1.9e-09,.,.,i
O=C(O)CCN1C(=O)c2ccccc2C1=O,i,1e-09,-1.3%,8%,i
CC(C)CC(=O)Nc1c2c(nn1-c1ccc(F)cc1)CSC2,.,.,0.0%,?,.
O=C(O)CCC(=O)N1CCC[C@H]1C(=O)O,i,5.3e-08,-1.3%,?,i
COc1cccc(-n2c(SCC(=O)OC(C)C)nnc2-c2cccnc2)c1,i,3.2e-08,-1.4%,.,i
COCCN(C(=O)Nc1ccc(OC)cc1OC)C1CCN(C(C)=O)CC1,i,9e-09,-0.2%,1%[11.4 µM],i
CCN(c1cccc(C(F)(F)F)c1)S(=O)(=O)c1ccc2c(c1)CCN2C(C)=O,i,1.9e-08,-2.3%,?,i
CCOCCCn1c(=S)[nH]c2cc(C(=O)N3CCC(C(N)=O)CC3)ccc2c1=O,i,2.8e-08,-0.9%,-5%,i
CC1(C)CC(=O)C(C=NCC2CCN(C(=O)Nc3ccccc3)CC2)=C(O)C1,.,.,3.9%,-1%,.
Cc1noc(C)c1S(=O)(=O)N1CCC(C(=O)Nc2ccccn2)CC1,i,8.9e-09,0.7%,7%,i
CC(=O)N1CCN(C)CC1,.,.,-0.7%,0%,.
O=C(O)C1CC=CCC1C(=O)N1CCN(c2nc(-c3ccccc3)c3ccccc3n2)CC1 (stereo not drawn),i,1.5e-09,.,.,i
C#CCOc1nc(OCC#C)nc(OCC#C)n1,.,.,1.8%,5%,.
COc1ccc(C)cc1-n1c(N)c(C#N)c(C#N)c1-c1ccc(OC)c(OC)c1OC,i,3.6e-09,0.3%,9%,i
NS(=O)(=O)c1ccc(NC=C2C(=O)OC3(CCCCC3)OC2=O)cc1,.,.,1.6%,-7%,.
O=C(C1CCC1)N1CCc2cc(S(=O)(=O)NCC3COc4ccccc4O3)ccc21 (stereo not drawn),i,1e-09,-0.8%,?,i
Cc1ccc(C(=O)CC2(O)C(=O)N(C)c3ccccc32)o1 (stereo not drawn),.,.,0.7%,2%,.
O=C(NCc1ccco1)c1cc(-c2ccc3c(c2)OCO3)on1,i,2.8e-09,0.4%,10%,i
C=CCNS(=O)(=O)c1ccc(OCC(=O)OC)cc1,i,6.8e-09,-3.3%,-2%,i
O=C(Nc1c(F)cc(F)cc1Br)c1cc(-c2ccco2)on1,i,1.5e-08,2.2%,-2%,i
Cc1cccc(OCc2nnc3n2CCCCC3)c1,i,4.9e-09,-0.1%,1%,i
COc1ccc(S(=O)(=O)N2Cc3ccccc3CC2C(=O)N2CCOCC2)cc1OC (stereo not drawn),i,1e-09,-1.1%,5%,i
CC(=O)N1C(=O)N(C(C)=O)C2C1N(C(C)=O)C(=O)N2C(C)=O (stereo not drawn),i,1e-09,0.3%,21%,i
N[C@@H](C(=O)O)[C@H](CC(=O)O)c1ccc(Cl)cc1,.,.,0.5%,6%,.
Cc1ccc(NC(=O)CS(=O)CC(=O)NCC2CCCO2)cc1 (stereo not drawn),i,3.4e-08,-0.2%,10%,i
Cn1ncc(N=Cc2ccccc2)c1C(N)=O,i,7e-08,.,.,i
Cc1ccc(-c2nc3ccccc3c(=O)n2CCCn2ccnc2)cc1,i,2.1e-08,-0.7%,6%,i
CC(C)N1CC(C(=O)Nc2nc3ccccc3s2)CC1=O (stereo not drawn),i,7.1e-09,0.8%,1%,i
COc1ccc(-n2c(=O)c3c4c(sc3n3cnnc23)CC(C)CC4)cc1 (stereo not drawn),.,.,0.0%,1%,.
Cc1c(O)ccc(C(=O)CN2C(=O)c3ccccc3C2=O)c1O,i,1.9e-08,-1.1%,0%,i
CCCC(=O)Nc1nc2ccc(S(N)(=O)=O)cc2s1,.,.,4.7%,-14%,.
CN1CCN(Cc2nc3c(c(=O)[nH]c(=O)n3C)n2Cc2c(F)cccc2Cl)CC1,.,.,-2.0%,0%,.
CC(=O)N(Cc1cccnc1)Cc1cc2ccccc2[nH]c1=O,i,1.3e-08,-1.5%,-2%,i
O=C(CSc1nnc(-c2ccc(Br)cc2)o1)Nc1cccc2ccccc12,i,5.7e-09,2.1%,0.04µM*,i
O=C(c1noc2c1CCc1ccccc1-2)N1CCOCC1,i,2.9e-08,0.8%,-7%,i
Nc1nc2c(c(=O)[nH]1)CN(CCCN1CCOCC1)CN2,i,1e-09,-0.8%[11.5 µM],-1%[11.4 µM],i
Cn1c(/N=C/c2c(O)ccc3ccccc23)nc2ccccc21,.,.,2.4%,?,.
CCOC(=O)Cn1c(=O)sc2ccccc21,.,.,-0.8%,1%,.
CCN1C(=O)/C(=C/N(C)C)c2ccccc21,i,4e-08,-0.3%,4%[11.4 µM],i
Cn1c(SCC(=O)Nc2cccc3ccccc23)nc(O)cc1=O,i,1.2e-08,-0.6%,18%,i
CC(C)(C)c1[nH]nc2c1C(c1ccncc1)C(C#N)=C(N)O2 (stereo not drawn),i,3.9e-08,0.5%,.,i
O=C1CC(c2ccc(S(=O)(=O)NCCOc3ccccc3)cc2)CN1 (stereo not drawn),i,3.1e-08,-3.1%,4%,i
# (next part)
SMILES,A488 fluor,A647 fluor,AID923,TSHR ag,Resorufin autofl
O=C(Cc1ccccc1)Nc1nc2ccc(Cl)cc2c2nc(-c3ccco3)nn12,.,.,3.4%,?,.
Cc1nn(-c2ccccc2)c(Cl)c1C(=O)NCC(=O)O,i,5.9e-09,0.6%,-3%,i
CCOc1ccccc1CNc1nc2nc3c(c(=O)n2[nH]1)CCC3,i,1.2e-09,-1.5%,6%,i
O=C(O)/C(=C/c1c(C(=O)O)[nH]c2cc(Cl)cc(Cl)c12)c1ccccc1,i,1e-09,-0.6%,14%,i
Cc1nc2scc(-c3ccccc3)c2c(=O)n1/N=C/c1ccco1,i,1e-09,0.6%,-1%[11.4 µM],i
COC(=O)c1[nH]c2ccccc2c1NC(=O)CN1CCN(Cc2ccc3c(c2)OCO3)CC1,i,1e-09,1.1%,-20%,i
Cc1ccc(S(=O)(=O)N(C)Cc2ccc(-c3nnc4n3CCC4)cc2)cc1,i,3.1e-08,-1.5%,16%,i
NC(=O)CN(c1ccc(Cl)cc1)S(=O)(=O)c1ccccc1,i,1.8e-09,-0.7%,1%,i
O=C1CCCc2c1[nH]c1ccccc21,i,4.1e-09,-0.4%,-2%,i
Clc1ccccc1-c1nnc2sc(-c3cccs3)nn12,i,1e-09,-0.3%,32%,i
CCOc1ccc(NC(=O)CSc2nnc(Cc3cccn3C)n2-c2ccc(OC)cc2)cc1,i,1e-08,2.4%,.,i
O=C(NCc1cccnc1)C1c2ccccc2C(=O)N1C1CCCC1 (stereo not drawn),.,.,-1.6%,5%,.

# The last 7 entries of the part above come first, to join the parts.
SMILES,A488 fluor,A647 fluor,AID923,TSHR ag,Resorufin autofl
COC(=O)c1[nH]c2ccccc2c1NC(=O)CN1CCN(Cc2ccc3c(c2)OCO3)CC1,i,1e-09,1.1%,-20%,i
Cc1ccc(S(=O)(=O)N(C)Cc2ccc(-c3nnc4n3CCC4)cc2)cc1,i,3.1e-08,-1.5%,16%,i
NC(=O)CN(c1ccc(Cl)cc1)S(=O)(=O)c1ccccc1,i,1.8e-09,-0.7%,1%,i
O=C1CCCc2c1[nH]c1ccccc21,i,4.1e-09,-0.4%,-2%,i
Clc1ccccc1-c1nnc2sc(-c3cccs3)nn12,i,1e-09,-0.3%,32%,i
CCOc1ccc(NC(=O)CSc2nnc(Cc3cccn3C)n2-c2ccc(OC)cc2)cc1,i,1e-08,2.4%,.,i
O=C(NCc1cccnc1)C1c2ccccc2C(=O)N1C1CCCC1 (stereo not drawn),.,.,-1.6%,5%,.
Cc1ncsc1C(=O)NCc1ccc(N2CCCC2=O)cc1,i,4.5e-09,0.6%,4%,i
Clc1ccccc1/C=C\c1ccnc2ccccc12,i,1.2e-09,2.4%[11.5 µM],4%[11.4 µM],i
CCOC(=O)C1=C(C)N=C2SCCC(=O)N2C1c1cccs1 (stereo not drawn),i,2.6e-08,1.4%,0%,i
COc1cc(C(=O)N2c3ccccc3CC2C)cc(OC)c1OC (stereo not drawn),.,.,1.0%,10%,.
Oc1[nH]c2ccccc2c1C1=NCCCC1,i,4.4e-09,2.8%,?,i
COc1ccc2c(c1)CCc1c(C(=O)Nc3cc(C)n(Cc4ccc(Cl)cc4)n3)noc1-2,i,4e-09,-0.7%,7%,i
COc1ccc(-c2nnn(CC(=O)N(CC(=O)NC3CCCC3)Cc3cccs3)n2)cc1OC,i,1e-09,-2.7%,8%,i
Cc1cc(C)c(NC(=O)Cn2c(=O)n(Cc3ccco3)c(=O)c3ccccc32)c(C)c1,i,2e-08,0.6%,?,i
C/C(CCN1CCCc2nc(C)c(C)cc21)=N\OC[C@@H](O)COCc1ccco1,.,.,2.7%[11.5 µM],12%[11.4 µM],.
CCCCCCc1cc2cc(C(=O)NC)c(=N)oc2cc1O,i,7e-09,.,.,i
COc1ccc(C)cc1NC(=O)CSc1nnc(COc2ccc(Cl)cc2)n1Cc1ccco1,i,2e-08,-0.1%,?,i
O=S(=O)(Nc1cc(Cl)ccc1N1CCCCC1)c1cccs1,i,5.9e-09,0.2%,6%,i
COC(=O)c1ccc(COC(=O)C23CC4CC(CC(O)(C4)C2)C3)o1,i,3e-09,1.2%,25µM*,i

# Bioassay records (PubChem)
